H5N1 antiviral = antiviral screen in MDCK cells, H5N1 avian flu | cytopathic effect, luminescence, 72 h; stronger effect = higher value; no value below 0 was filed and about half of the inactive calls have no number; reference of the scale not given here | actives 0.07% (n = 96,000) | inhibition, % at 50 µM; in the data active = inhibition above about 25%
An asterisk follows results filed as active; i = inactive. Only part of the results is shown, so the mix of outcomes need not match the whole.

#	structure	H5N1 antiviral
1	N#Cc1c(/N=C/c2ccco2)sc2c1CCC2	i
2	O=C(Cc1cccs1)Nc1nnc(CCc2ccccc2)s1	i
3	O=C(CSc1ncc(-c2ccc(F)cc2)[nH]1)Nc1cccc(O)c1	i
4	O=c1nc(/C=C/c2ccc(-c3ccc(F)cc3)o2)cc(C(F)(F)F)[nH]1	1.9
5	COc1ccccc1N1CCN(S(=O)(=O)c2ccc(Cl)s2)CC1	1.2
6	CCOC(=O)c1sc(NC(NC(=O)c2ccco2)(C(=O)OC)C(F)(F)F)nc1C (stereo unspecified)	0.3
7	Cn1ccnc1SCc1cc(=O)[nH]c2ccccc12	i
8	CCOC(=O)CC1ON(C)C(=O)N1c1ccc([N+](=O)[O-])cc1 (stereo unspecified)	i
9	CCOC(=O)c1cc2c(ccn2C)n1CC(=O)N1CCC(C)CC1	0.5
10	CCCCN1C2CCCC1CC(NC(=O)c1ccc(OC)c(OC)c1)C2 (stereo unspecified)	i
11	CCc1cc2ccc(C)cc2nc1SCC(=O)N1CCN(C(=O)c2ccco2)CC1	0.6
12	CCCCN1Cc2cc(C(=O)c3cc(F)ccc3O)cnc2NC1=O	i
13	CCOC(=O)c1cnn(-c2ccccc2)c1NC(=O)CSc1nnc(-c2cccs2)n1CC	0.8
14	CC(C)CC(NC(=O)c1ccc(Cl)cc1)C(=O)O (stereo unspecified)	0.5
15	CC(C)(C)c1ccc(SCC(N)=O)cc1	0.0
16	Cc1ccc(CN(CC(=O)NCCc2ccccc2)C(=O)CCCC(=O)Nc2cc(C)on2)cc1	i
17	COc1cccc(NC(=O)Cn2c(=O)n(CCCC(=O)NCc3ccco3)c(=O)c3ccccc32)c1	0.7
18	CS(=O)(=O)N(CC(=O)N1CCc2ccccc2C1)Cc1ccccc1	0.5
19	CCNC(=O)NC(=O)CSc1ccc(NC(C)=O)cc1	0.3
20	COC(=O)C1=C(N)Oc2cc(C)n(Cc3ccccc3)c(=O)c2C1c1ccccc1 (stereo unspecified)	i
21	O=C1CC(c2cccs2)Sc2nc3ccccc3n21 (stereo unspecified)	1.0
22	COc1ccc(N2CCN(c3nc4ccccc4nc3NS(=O)(=O)c3ccccc3)CC2)cc1	0.5
23	CC(=O)N1CCC2(CC1)C(C#N)=C(N)Oc1n[nH]c(CSc3ccc(C)cc3)c12	0.3
24	CS(=O)(=O)c1sc2nc(-c3ccccc3)cc(-c3ccccc3)c2c1N	i

Entries shown so far that have a halogen, in the order listed:
#	structure	H5N1 antiviral
3	O=C(CSc1ncc(-c2ccc(F)cc2)[nH]1)Nc1cccc(O)c1	i
4	O=c1nc(/C=C/c2ccc(-c3ccc(F)cc3)o2)cc(C(F)(F)F)[nH]1	1.9
5	COc1ccccc1N1CCN(S(=O)(=O)c2ccc(Cl)s2)CC1	1.2
6	CCOC(=O)c1sc(NC(NC(=O)c2ccco2)(C(=O)OC)C(F)(F)F)nc1C (stereo unspecified)	0.3
12	CCCCN1Cc2cc(C(=O)c3cc(F)ccc3O)cnc2NC1=O	i
14	CC(C)CC(NC(=O)c1ccc(Cl)cc1)C(=O)O (stereo unspecified)	0.5

The listing continues:
#	structure	H5N1 antiviral
25	CSc1nc(C)cc(OCCNS(=O)(=O)c2cc(C)ccc2C)n1	1.1
26	O=C(CCNS(=O)(=O)c1cccc2nsnc12)Nc1ccc2c(c1)OCCO2	i
27	Cc1c(Cl)c([N+](=O)[O-])nn1Cc1ccc(C(=O)N/N=C\c2cccc(Br)c2)o1	2.1
28	Cn1c(=O)[nH]c(=O)c2c1nc(NCc1ccccc1)n2CC(O)c1ccccc1 (stereo unspecified)	0.9
29	CC1CCc2cc(F)cc3c(O)c(C(=O)NCc4ccco4)c(=O)n1c23 (stereo unspecified)	i
30	Cc1n[nH]c(C)c1CCCOc1ccccc1	i
31	Cc1cccc(NC(=O)c2sc(Cl)nc2-c2ccccc2)c1	i
32	CCOc1ccc(OCC)c(NC(=O)CSc2nnc(-c3cccnc3)o2)c1	0.2

Shown with each value named: entries from further up.
30. Cc1n[nH]c(C)c1CCCOc1ccccc1
  H5N1 antiviral = i
32. CCOc1ccc(OCC)c(NC(=O)CSc2nnc(-c3cccnc3)o2)c1
  H5N1 antiviral = 0.2

Continued:
#	structure	H5N1 antiviral
33	CCc1ccc(OCC(=O)OCC(=O)c2ccc3c(c2)NC(=O)CO3)cc1	0.5
34	Cc1cc(/C=C(/C#N)c2cccc(Cl)c2)c(C)n1C	0.1
35	O=NC1=C(c2c(O)[nH]c3ccccc23)CCCC1	2.6
36	Cc1cccc(-c2n[nH]c([N+](=O)[O-])n2)c1	0.2
37	COc1ccc(C2NC(=O)CS2)cc1OC (stereo unspecified)	0.1
38	CCc1nc(N)c(C#N)c(-c2ccccc2OC)c1C	i
39	CCOc1ccccc1NC(=O)Cc1coc2cc(C)ccc12	i
40	Cn1c(SCc2ccccc2)nnc1-c1ccncc1	i
41	CCn1c(SCC(=O)c2ccccc2)nnc1-c1cccs1	1.2
42	COc1ccc(-c2nc(S(=O)(=O)c3ccc(C)cc3)c(N3CCCC3)o2)cc1	1.2
43	Cc1ccc(N2CC(C(=O)Oc3cccc(N4C(=O)CCC4=O)c3)CC2=O)cc1 (stereo unspecified)	0.6
44	Cc1ccc(N=c2oc3cc(O)ccc3cc2C(N)=O)cc1	0.9
45	O=C(Nc1ccc(S(=O)(=O)Nc2ccc(Cl)cc2)cc1)C1CCCO1 (stereo unspecified)	0.8
46	COCCn1c(SCC(=O)Nc2cccc(C)c2)nnc1C(C)C	0.6
47	COc1ccccc1OCC(=O)OCC(=O)NCCN1C(=O)CSC1=O	i
48	CCC(=O)N(Cc1ccco1)c1nc(-c2ccccc2)cs1	0.3
49	Cn1c(=O)cc(OCCCC(=O)Nc2ccccn2)c2ccccc21	4.3
50	CSCCC(NS(=O)(=O)c1ccc2c(c1)oc(=O)n2C)C(=O)NC1CCCCC1 (stereo unspecified)	1.0
51	Cc1cccnc1NC(=S)NC(=O)/C=C/c1ccco1	0.6
52	CC(C)c1nc(NCCN2CCOCC2)c(C#N)c2c1COC(C)(C)C2	i
53	CC(Sc1cccc2cccc(C(=O)O)c12)C(=O)O (stereo unspecified)	i
54	Cc1ccc(S(=O)(=O)N2CCCCC2C(=O)N2CCN(C)CC2)cc1 (stereo unspecified)	1.4
55	COc1cc(C)c(CNC2CCCCC2)cc1C	i
56	CCN(c1cccc(C)c1)S(=O)(=O)c1ccc2c(c1)CCN2C(C)=O	1.0
57	O=C(c1cnc2ccccn2c1=O)N1CCc2ccccc21	0.9
58	CCCCNC(=O)C(NS(=O)(=O)c1cccc2nsnc12)c1ccccc1 (stereo unspecified)	0.5
59	O=C(NC1CCCC1)C(c1ccsc1)N(C(=O)Cc1cccs1)c1ccccc1 (stereo unspecified)	i
60	COc1ccc(-c2cc(-c3ccccc3)c(C#N)c(S(C)(=O)=O)n2)cc1	16
61	CCn1c(Sc2ccc(N)cc2Cl)nc2ccccc21	i
62	CCCCCSc1nc2c(cnn2-c2ccccc2)c(=O)[nH]1	0.5
63	Cc1csc(NC(=O)COc2ccc3c(C)cc(=O)oc3c2)n1	1.3
64	O=c1cc(CSc2nnnn2-c2ccccc2)[nH]c2[nH]n(-c3ccccc3)c(=O)c12	i
65	COc1cccc(CC(=O)NCC2COc3ccccc3O2)c1OC (stereo unspecified)	0.3
66	COC(=O)c1sc(=S)n(-c2ccccc2)c1N	i
67	O=C(Nc1nc2c(s1)CCCC2)c1ccc(Br)o1	i
68	CCN(CC)CCCNC(=O)C1c2cc(OC)c(OC)cc2C(=O)N(C)C1c1cccs1 (stereo unspecified)	0.6
69	O=C(c1ccccc1)N1CCCC(c2nc3c(nnn3Cc3ccccc3)c(=O)[nH]2)C1 (stereo unspecified)	2.7
70	CCOC(=O)C1(C)NC(c2ccc(N(C)C)cc2)C2C(=O)N(CC)C(=O)C21 (stereo unspecified)	i
71	CCCCNC(=O)c1ccc2c(OCC)n(CCCC)nc2c1	1.4
72	O=C(Cn1nc(-c2ccc(F)cc2)ccc1=O)Nc1ccc(C(=O)NC2CC2)cc1	i
73	Brc1ccc(-c2nc(-c3ccncc3)no2)o1	i
74	CCC(=O)N1CCc2cc(S(=O)(=O)CCC(=O)NCCC3=CCCCC3)ccc21	1.0
75	COC(=O)c1ccccc1OC(=O)c1cccnc1	0.8
76	O=C(NCc1cccnc1)C1CC(=O)N(c2ccc(F)cc2)C1 (stereo unspecified)	i
77	CC1CCCN(CCOCCOc2ccc(Cl)cc2Br)C1 (stereo unspecified)	i
78	Cc1cc(C)n2c(SC/C(O)=C(\C#N)c3nc4ccccc4[nH]3)nnc2n1	1.7
79	O=C(NCc1ccccn1)c1cc2n(n1)C(C(F)(F)F)CC(c1ccco1)N2 (stereo unspecified)	i
80	CCn1c(=O)cc(OCC(=O)NCCC(C)C)c2ccccc21	2.5
81	Cc1cccc(NC(=O)/C(=C\c2ccco2)NC(=O)c2cccs2)c1	i
82	Cc1cc(C)nc(N(C#N)CC(=O)N(c2ccccc2)C(C)C)n1	0.4
83	Cc1ccccc1NC(=O)N1CCCC(c2nc(-c3ccc(C(C)C)cc3)no2)C1 (stereo unspecified)	i
84	CN1CCN(c2ccc([N+](=O)[O-])cc2S(=O)(=O)N2CCOCC2)CC1	3.2
85	CC(C)(C)OC(=O)NCCc1nnc(SCC(=O)c2ccc(Cl)cc2)o1	i
86	N#Cc1c(N)sc(=S)c2c1CCCC2	i
87	CCOC(=O)N1CCC(NC(=O)C2CCN(S(=O)(=O)c3cnc[nH]3)CC2)CC1	i
88	COc1ccc(C(=O)NCc2cccnc2)cc1OC	0.8

Additional entries
#	structure	H5N1 antiviral
89	Cc1cc(SCC(=O)c2ccccc2)n2nc(C)nc2n1	0.6
90	Cc1cccc(-c2noc(Cc3ccccc3)n2)c1	0.7
91	O=C(CSc1ccc2nnc(-c3ccccn3)n2n1)Nc1ccc2c(c1)OCO2	3.0
92	CCNC(=O)CP(=O)(c1ccccc1)c1ccccc1	i
93	Cc1c(C(=O)NCCC2=CCCCC2)oc2ccc(S(=O)(=O)N3CCC4(CC3)OCCO4)cc12	i
94	CC1CCCCN1CCn1cnc2c([nH]c3ccccc32)c1=O (stereo unspecified)	0.5
95	CCCCCn1c(C(C)NC(=O)CCC)nc2ccccc21 (stereo unspecified)	0.8
96	COc1cc2nc(CN3C(=O)c4ccccc4C3=O)oc(=O)c2cc1OC	i
97	COc1ccc(NS(=O)(=O)c2ccc(NC(C)=O)cc2)cc1OC	i
98	CCOc1ccc(C(=O)NN2C(=O)C3C4C=CC(O4)C3C2=O)cc1 (stereo unspecified)	0.4
99	CCOc1c(Br)cc(C(N)=O)cc1OC	i
100	COc1ccc(C(=O)CCC(=O)O)c(C)c1	i
101	CCOC(=O)/C(=N\Nc1cccc(C(F)(F)F)c1)N(CCOC)CCOC	i
102	O=S(=O)(Nc1ccc2c(c1)nc1n2CCN(Cc2ccccc2)C1)c1ccc(Cl)cc1	0.3
103	Cc1[nH]c2ccc3c(ncn3CCC#N)c2c1C	i
104	CCOc1ccc(OCCSc2nc3ccccc3o2)cc1	i
105	O=C(Nc1ccccc1C(=O)O)c1ncn[nH]1	1.4
106	COc1ccc(-c2noc(-c3ccccc3-c3ccccc3)n2)cc1	2.2
107	COc1ccc(Oc2cc(C(F)(F)F)cnc2C(N)=O)cc1	i
108	COC(=O)C1=C(O)CSC1=Nc1cccc(C(F)(F)F)c1	i
109	Cc1ccc(C2CC(=O)C=C(O)C2)cc1 (stereo unspecified)	i
110	O=C(c1ccc(Cl)cc1)c1ccc(OCC(O)CN2CCCCC2)cc1 (stereo unspecified)	i
111	O=C1C2ON(c3ccc(Br)cc3)C(c3cccnc3)C2C(=O)N1C1CCCCC1 (stereo unspecified)	0.2
112	Cn1c(COc2ccccc2)nnc1SCC(=O)Nc1ccc(S(N)(=O)=O)cc1	i
113	O=C(c1cccc(Cl)c1)N1CCCC(C(=O)N2CCCCCC2)C1 (stereo unspecified)	0.7
114	Cc1cc(S(=O)(=O)NCC(=O)O)ccc1F	0.9
115	O=C1/C(=C\c2ccc(Br)o2)SC(=Nc2ccccc2)N1c1ccccc1	1.1
116	COc1ccc(S(=O)(=O)N2CCC(C(=O)N3CCc4ccccc4C3)CC2)cc1	0.1
117	Cc1cc2ccccc2c(=O)[nH]1	i
118	c1ccc(-c2nnc3sc(-c4ccncc4)nn23)cc1	1.8
119	Cc1cc(=O)[nH]c(SCC(=O)Nc2nc(-c3ccccc3)cs2)n1	4.3
120	O=C(C1CCN(S(=O)(=O)c2cccc3cccnc23)CC1)N1CCN(c2ccccc2)CC1	0.9
121	Cc1ccc2c(c1)C1(OCCO1)C(=O)N2	i
122	CC(C)N(c1ccccc1)c1ncnc(NCCC(=O)O)c1[N+](=O)[O-]	i
123	COc1ccc(NC(=O)CSc2nnc(Cc3ccccc3)o2)c(OC)c1	i
124	CCN1CN=C(NS(=O)(=O)c2ccc(C)cc2)NC1	i
125	COc1ccc(OC)c(C2=Nn3c(nnc3-c3ccco3)SC2)c1	2.2
126	Cn1cccc1C(=O)OCc1csc(-c2ccccc2)n1	i
127	CCc1c(C)nc2ccc(Br)cc2c1Cl	i
128	CCOC(=O)C1=C2SCCN2C(=O)C(C#N)C1(C)C (stereo unspecified)	0.3
129	Cc1ccc(-c2nc(CS(=O)CC(=O)NC3CCCC3)c(C)o2)cc1 (stereo unspecified)	0.7
130	CCCCOc1ccc(C(C)NC(=O)C2CCCN(S(=O)(=O)CC)C2)cc1 (stereo unspecified)	i
131	CC(NC(=O)C12CC3CC(CC(C3)C1)C2)C(=O)NCCN(C)C (stereo unspecified)	i
132	COC(=O)CN1C(=O)C(O)(CC(=O)c2ccc(Br)cc2)c2ccccc21 (stereo unspecified)	i
133	O=C(O)C1C2C=CC3(CN(Cc4ccco4)C(=O)C13)O2 (stereo unspecified)	0.8
134	COc1cccc(N2C(=O)C3C(C2=O)C2C=CC3C23CC3)c1 (stereo unspecified)	0.6
135	Cc1ccc2nc(N3CCC(C(=O)N4CCC5(CC4)OCCO5)CC3)sc2c1	i
136	CNCCCc1[nH]nc(N)c1C#N	0.9

High-throughput results (PubChem)
